Compound activity as filed in PubChem.
ClpP mod = qHTS Assay for Activators of ClpP; ATP-dependent Clp protease proteolytic subunit (Bacillus subtilis (strain 168)), P80244; 340,000 compounds, 1.9% hits; purified B. subtilis ClpP, FRET peptide cleavage, 20 min; Potency, µM (top dose mostly 57.5 µM), for the others: at the top dose activity change, negative = active; active = well fitted falling curve with a large enough effect; inconclusive = small, poorly fitted or top-dose-only effect; inactive = no such curve, though single readings can be large or run the other way; further: potency means the concentration at half of the fitted maximal effect; the source files actives as falling curves though it sought activators and does not explain the sign; nearly all actives have a fitted effect of over 65% in size; many hits overshoot -100%
Target sequence (P80244 whole entry, looked up): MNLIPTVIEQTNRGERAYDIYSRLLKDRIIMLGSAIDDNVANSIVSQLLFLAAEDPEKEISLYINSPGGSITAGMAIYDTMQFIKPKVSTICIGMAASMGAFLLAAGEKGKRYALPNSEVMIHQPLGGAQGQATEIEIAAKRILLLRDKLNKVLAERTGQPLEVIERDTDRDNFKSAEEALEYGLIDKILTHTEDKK
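Purified B. subtilis ClpP, 10 microg/mL final in Tris/HCl pH8 with KCl, BSA, glycerol and Tween-20, cleaved an Abz/nitrotyrosine-quenched decapeptide. Fluorescence (ex 320, em 430) was read at 0 and 20 min at room temperature. Delta was normalized to 5.8 microM ADEP and DMSO/no-enzyme controls.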
TRPV1 PAM = HTS Assay for Compounds that Act as Potentiators of the Vanilloid Receptor 1 | Transient receptor potential cation channel subfamily V member 1 (Homo sapiens), Q8NER1 | 320,000 compounds, 0.02% hits | potentiation, % at 8.33 µM | TRPV1-expressing cells, Fluo-8 calcium influx, capsaicin EC20 potentiation; host cell line not named in the record; control for the full effect not named in the record; active means potentiation above 80%; inconclusive means 30% to 80%; inactive means below 30%; further: 0% is about no effect
Target sequence (Q8NER1 whole entry, looked up): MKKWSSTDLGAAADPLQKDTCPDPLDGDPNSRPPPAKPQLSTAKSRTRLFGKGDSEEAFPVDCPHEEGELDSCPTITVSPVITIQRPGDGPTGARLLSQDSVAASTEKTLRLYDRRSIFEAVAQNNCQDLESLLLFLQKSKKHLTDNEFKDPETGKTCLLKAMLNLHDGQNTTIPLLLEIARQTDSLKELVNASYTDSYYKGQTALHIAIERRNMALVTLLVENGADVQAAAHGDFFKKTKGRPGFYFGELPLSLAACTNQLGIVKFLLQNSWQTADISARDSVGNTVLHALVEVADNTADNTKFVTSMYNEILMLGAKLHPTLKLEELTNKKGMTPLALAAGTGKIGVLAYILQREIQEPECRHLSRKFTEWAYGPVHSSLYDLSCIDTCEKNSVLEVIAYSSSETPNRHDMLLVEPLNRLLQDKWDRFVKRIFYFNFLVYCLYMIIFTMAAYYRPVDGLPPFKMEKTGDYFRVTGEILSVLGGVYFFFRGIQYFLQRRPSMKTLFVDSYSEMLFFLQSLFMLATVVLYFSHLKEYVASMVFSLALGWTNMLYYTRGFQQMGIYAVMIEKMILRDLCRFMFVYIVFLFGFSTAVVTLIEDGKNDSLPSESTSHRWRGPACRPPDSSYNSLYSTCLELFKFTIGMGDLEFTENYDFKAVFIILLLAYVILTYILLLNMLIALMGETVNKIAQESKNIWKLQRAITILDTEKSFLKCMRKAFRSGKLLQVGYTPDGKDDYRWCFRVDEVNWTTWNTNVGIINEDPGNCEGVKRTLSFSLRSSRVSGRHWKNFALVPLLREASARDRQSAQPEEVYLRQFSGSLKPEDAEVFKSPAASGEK
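Cells expressing TRPV1 were dye-loaded with Fluo-8 and read kinetically: 10 s baseline, 3 min after compound (agonist portion), then 2 min after EC20 capsaicin (allosteric enhancer portion). Calcium-bound dye fluorescence at 480/520 nm.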
Sfp inh = qHTS Assay for Inhibitors of Bacillus subtilis Sfp phosphopantetheinyl transferase (PPTase); 4'-phosphopantetheinyl transferase ffp (Bacillus subtilis), Q9F4F7; Biochemical Sfp PPTase activity, qHTS; Potency, µM, for the others: max response, negative = inhibition, usual class: inhibitors; 310,000 compounds, 3.5% hits; AID 1490, 2009; active means well fitted inhibition curve with a large enough effect; inconclusive means small, poorly fitted or top-dose-only effect, or another doubt; inactive means no such curve, though single readings can be large or run the other way;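 further: the enzyme is Sfp with the accession as filed and its product quenches rhodamine fluorescence; potency means the concentration at half of the fitted maximal effect; 0% = enzyme reaction without inhibitor and -100% = no enzyme wells; top concentration of the series not given in the record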
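With Hepes-Na pH 7.6 buffer containing 10 mM MgCl2, Sfp (15 nM) modified BHQ-2-YbbR (12.5 uM) using rhodamine-CoA (5 uM). Two reads 30 minutes apart at 525/598 nm yielded each well's rate.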
CtBP-E1A blk = qHTS Assay for Inhibitors of the CtBP/E1A Interaction; CtBP / adenovirus E1A interaction (AlphaScreen); AlphaScreen GST-E1A/His-CtBP binding, 1536-well; active compounds read low; control for the full effect not named in the record; activity change, % (concentration not given with the values); 340,000 compounds, 0.49% hits; AID 651724, 2012; in the data active means activity change below about -65%; inconclusive means about -30% to -65%; inactive means above about -30%; further: on the % scale 0 is the no-effect control and ±100 the full control effect
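Steps: dispense buffer (Tris pH 8.0, NaCl 300 mM, TCEP 1 mM, BSA, Tween 20); add 5X protein mix (GST-E1A, His-CtBP, 125 nM each); pin 23 nL compound; 2 h at 37 °C, dark; add 5X beads (50 ug/mL); 1 h; read.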
gsp agonist = qHTS for Agonist of gsp, the Etiologic Mutation Responsible for Fibrous Dysplasia/McCune-Albright Syndrome: qHTS | gsp mutant cells, cAMP HTRF, 30 min; control for the full effect not named in the record | Potency, µM (highest dose often 76.9 µM), without a hit: top-dose activation (cAMP increase), actives largely listed as activators | 340,000 compounds, 0.13% hits | AID 624287, 2012; active = well fitted activation curve with a large enough effect; inconclusive = small, poorly fitted or top-dose-only effect, or another doubt; inactive = no such curve, though single readings can be large or run the other way; cell line not stated here;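 further: phosphodiesterase inhibitor Ro 20-1724 added with compounds to block cAMP breakdown; potency means the concentration at half of the fitted maximal effect; nearly all actives have a fitted effect of over 60% in size; about a fifth of the inactives were tested at one dose only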
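Cells in DMEM/10% FBS with G418 were pretreated with compounds in DMSO plus […] (300 uM stock) for 30 min at 37C. cAMP was measured by HTRF (cAMP-d2 plus anti-cAMP antibody-K) after 30 min at room temperature.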
Menin-MLL FL inh = qHTS Assay for Inhibitors Targeting the Menin-MLL Interaction in MLL Related Leukemias: Competition With Fluorescein Labeled MLL-derived Peptide; Fluorescence polarization, fluorescein-MLL peptide displacement from menin; FP activity change, % at 61.4 µM; 290,000 tested, under 10 active; inconclusive = falling polarisation curve, or a change in total fluorescence; inactive = total fluorescence flat and polarisation flat or rising; no compound was filed as active; the % refers to the polarisation; negative = inhibition;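 further: % of control where 0% means no effect; inhibitors lower the polarisation; unlabelled MLL peptide was the positive control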
gsp antag = qHTS for Antagonists of gsp, the Etiologic Mutation Responsible for Fibrous Dysplasia/McCune-Albright Syndrome: qHTS. gsp-mutant cells, cAMP HTRF, 30 min; control for the full effect not named in the record. Potency, µM (series often up to 76.9 µM), for the others: at the top dose activity change, negative = inhibition, usual class: inhibitors. 340,000 compounds, 0.4% hits; active = falling curve of any shape with a large fitted effect; inconclusive = falling curve, mostly with a smaller effect; inactive = flat or rising curve; cell line not stated here;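 further: intracellular cAMP measured with PDE inhibitor Ro 20-1724 present during compound exposure; potency means the concentration at half of the fitted maximal effect; on the % scale 0 is the no-effect control and ±100 the full control effect; nearly all actives have a fitted effect of over 65% in size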
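Measurement of cellular cAMP by homogeneous time-resolved fluorescence following a 30 min compound exposure at 37C. The PDE inhibitor […] was present throughout; the assay buffer was DPBS with 0.05% BSA and 0.005% Tween 20.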
Active calls of the source: *; ? = inconclusive; . = not tested or not shown; & = joins results of further samples; [ ] = remark or other dose.

SMILES	ClpP mod	TRPV1 PAM	Sfp inh	CtBP-E1A blk	gsp agonist	Menin-MLL FL inh	gsp antag
O=C(Nc1nc(-c2ccccn2)cs1)C12CC3CC(CC(O)(C3)C1)C2	.	-21	40µM*	.	-12%[15.4 µM]	-1.9	-6%
COc1cc(=O)[nH]c(SC(C)C(=O)Nc2cccc3ccccc23)n1 (stereo not given)	.	6	6%	0	4%[15.4 µM]	1.3	-20%
O=S(=O)(Nc1ccccc1)c1ccc(-c2cnc(C3CC3)o2)cc1	-2.5%	-13	-5%	.	-40%[inhibitor]	.	-5%
O=C(NCCc1ccccc1)c1cc2sccc2n1Cc1ccccc1	-1.5%	4	-1%	-1	-32%	2.3	-16%
Cc1noc(C)c1S(=O)(=O)N(C)C[C@@H]1OCc2cnnn2CCCC(=O)N([C@@H](C)CO)C[C@H]1C	-1.7%	.	.	0	-28%	.	.
CC1=CCC(C(=O)O)(C(=O)N/N=C/c2cccs2)C(c2ccc(Cl)cc2)C1 (stereo not given)	0.1%	21	24%	-3	9%	-3.0	3%
CCOC(=O)CN1C(=O)N[C@@H](c2cccc(C(F)(F)F)c2)C(C(C)=O)=C1C	0.1%	.	12%	1	.	5.6[11.7 µM]	5%
Cn1c(=O)c2[nH]c(C3CC=CCC3)nc2n(C)c1=O (stereo not given)	-1.3%	.	.	2	21%	.	9%
CC1(C)Cc2c(C#N)c(N3CCN(C(=O)c4ccccc4)CC3)nc(-c3ccco3)c2CS1	?	10	20µM*	4	1%	?	-8%
O=C(O)c1ccc(NC2(C(=O)O)CCCC2)cc1	2.2%	.	.	11	-6%	.	4%
O=C(CNC(=O)c1ccccc1)N/N=C/c1ccccc1Cl	-0.6%	4	-10%	11	3%[15.4 µM]	0.1	-3%
O=C(O)CSc1cccc2cccc(C(=O)O)c12	-1.3%	-6	1%	5	22%	3.8	4%
O=C(CN1C(=O)C(=O)N(C2CCCC2)C1=O)Nc1ccc(N2CCOCC2)cc1	-2.8%	7	11%	-11	-3%[15.4 µM]	4.3	4%
COc1ccc([N+](=O)[O-])cc1N(CC(=O)N1CCCC1)S(C)(=O)=O	.	-3	-8%	-8	-18%	-3.7	8%
COc1ccc(CCC(=O)N2CCc3ccccc32)cc1	0.8%	-15	16%	1	24%	15	-3%
Cc1ccc(C)c(S(=O)(=O)Nc2nc3ccc(S(N)(=O)=O)cc3s2)c1	.	14	?	0	-1%[15.4 µM]	1.9	9%
Cc1ccc(C)c(OCCCCN2CCCCC2)c1	0.4%	4	-7%	5	21%	-0.7	10%
COc1ccccc1NS(=O)(=O)c1cccc(C(=O)N/N=C(\C)c2ccc3c(c2)OCCO3)c1	-14%	0	9%	-3	?	9.8	-11%
Cc1ccc(SCC(=O)O/N=C(\N)c2cccnc2)cc1	0.0%	-2	16%	8	1%[15.4 µM]	.	6%
O=C(N/N=C(\Cc1ncc[nH]1)c1ccccc1)c1ccncc1	-4.0%	4	-12%	-90*	-5%[15.4 µM]	-1.4	5%
CC(C(=O)Nc1ccc(F)c(F)c1F)N1CCCCCC1 (stereo not given)	-1.1%	5	-1%	-1	-8%[15.4 µM]	-0.3	10%
CN(C)c1ccc(Sc2nnc(NC(=O)Nc3ccc(Cl)cc3Cl)s2)cc1	1.3%	-9	1%	-1	-18%	-0.6	13%
Cc1sc2ncnc(N3CCC(C(=O)Nc4nc(-c5ccc(F)cc5)cs4)CC3)c2c1C	-0.8%	4	.	-2	-39%	.	-2%
CCCN(CC(=O)Nc1ccccc1C)C(=O)CCN1C(=O)c2cccc([N+](=O)[O-])c2C1=O	-3.5%	2	.	-17	32%	.	4%

An excerpt from above in order of molecular weight, smallest number first.
SMILES	ClpP mod	TRPV1 PAM	Sfp inh	CtBP-E1A blk	gsp agonist	Menin-MLL FL inh	gsp antag
Cn1c(=O)c2[nH]c(C3CC=CCC3)nc2n(C)c1=O (stereo not given)	-1.3%	.	.	2	21%	.	9%
COc1ccc(CCC(=O)N2CCc3ccccc32)cc1	0.8%	-15	16%	1	24%	15	-3%
CC(C(=O)Nc1ccc(F)c(F)c1F)N1CCCCCC1 (stereo not given)	-1.1%	5	-1%	-1	-8%[15.4 µM]	-0.3	10%
O=C(Nc1nc(-c2ccccn2)cs1)C12CC3CC(CC(O)(C3)C1)C2	.	-21	40µM*	.	-12%[15.4 µM]	-1.9	-6%
O=C(NCCc1ccccc1)c1cc2sccc2n1Cc1ccccc1	-1.5%	4	-1%	-1	-32%	2.3	-16%
CN(C)c1ccc(Sc2nnc(NC(=O)Nc3ccc(Cl)cc3Cl)s2)cc1	1.3%	-9	1%	-1	-18%	-0.6	13%
CCCN(CC(=O)Nc1ccccc1C)C(=O)CCN1C(=O)c2cccc([N+](=O)[O-])c2C1=O	-3.5%	2	.	-17	32%	.	4%
Cc1sc2ncnc(N3CCC(C(=O)Nc4nc(-c5ccc(F)cc5)cs4)CC3)c2c1C	-0.8%	4	.	-2	-39%	.	-2%
Cc1noc(C)c1S(=O)(=O)N(C)C[C@@H]1OCc2cnnn2CCCC(=O)N([C@@H](C)CO)C[C@H]1C	-1.7%	.	.	0	-28%	.	.

Next part:
SMILES	ClpP mod	TRPV1 PAM	Sfp inh	CtBP-E1A blk	gsp agonist	Menin-MLL FL inh	gsp antag
COc1ccc(-c2nc(CNS(=O)(=O)c3cc(OC)ccc3OC)cs2)cc1	-12%	-9	6%	-8	-5%	7.4	-13%
CC12c3ccccc3C(c3ccccc31)C1C(=O)N(c3cccnc3)C(=O)C12 (stereo not given)	-16%	-1	-2%	-1	17%	0.6	14%
COc1ccc(/C=C/C(=O)Nc2ccc(C(C)=O)cc2)cc1S(=O)(=O)N1CCOCC1	0.1%	.	.	-4	-48%[inhibitor]	.	.
O=C(COc1ccccc1[N+](=O)[O-])NCC1(N2CCOCC2)CCCCC1	-0.2%	.	.	0	-2%[15.4 µM]	.	-7%
COc1ccc(C(=O)CC(=O)C(=O)Nc2cc([N+](=O)[O-])ccc2OC)cc1	1.8%	?	1%	.	22%	3.7	9%
CN(C)C(=O)CS(=O)(=O)c1ccc(Cl)cc1	1.2%	9	17%	-1	6%[15.4 µM]	-0.5	-8%
CCN1CCCC1CNC(=O)c1[nH]c2ccc(OC)cc2c1C (stereo not given)	3.2%	1	-7%	-1	29%	-0.3	8%
CC(C)C[C@@H](CO)N1CCN(Cc2ccc(O)cc2)CCC1=O	0.1%&-0.8%	-10	11%	8	.	0.6	11%
Cc1ccccc1CSCC(=O)NCc1ccco1	.	6	-26%	-1	-9%	4.7	7%
COc1cc(C(=O)OCCCN2CCOCC2)cc(OC)c1OC	-3.6%	.	.	1	-28%	.	.
CCn1c(=O)c2sccc2n(CC(=O)NC2CCCC2)c1=O	.	-1	11%	-9	6%[15.4 µM]	-0.7	-14%
CN1C(=O)Cc2cc(S(=O)(=O)Nc3ccc(N4CCOCC4)cc3)ccc21	.	4	2%	-1	-4%	8.2	0%
Cc1cccc2cc(C3CC(c4cccs4)=NN3S(C)(=O)=O)c(Cl)nc12 (stereo not given)	-10%	8	-11%	.	-23%	3.1	-6%
COc1ccc(S(=O)(=O)N(C)C[C@H]2OCCCC[C@@H](C)Oc3ccc(NC(=O)CCC(F)(F)F)cc3C(=O)N([C@H](C)CO)C[C@@H]2C)cc1	-0.6%	.	.	5	-5%	.	.
Cc1ccc2sc(NC(=O)c3ccc(N4C(=O)CCC4=O)cc3)nc2c1C	4.6%	13	28%	6	?	0.2	7%
CC(C)CN(C(=O)COC(=O)c1ccc([N+](=O)[O-])o1)C1CCS(=O)(=O)C1 (stereo not given)	-6.3%	-7	9%	0	-20%	.	10%
O=C(Cn1nnc(-c2ccccc2F)n1)Nc1ccc(S(=O)(=O)NC2CCCC2)cc1	0.1%	-7	-3%	12	19%	1.3	6%
CC(C)(C)NC(=S)NNC(=O)c1ccccc1Cl	-9.7%	-24	-28%	2	0%	0.4	6%
O=c1cc(O)n(-c2ccccc2)c(=S)[nH]1	-0.5%	-6	35µM*	-3	-2%	14	-16%
O=[N+]([O-])c1ccc(N2CCN(CC3CCCCC3)CC2)cc1	0.7%	?	-25%	.	?	-5.9	-7%
CCn1c(SCC(=O)NC2CC2)nnc1-c1ccccn1	-1.5%	-3	-5%	4	19%	.	11%
CC(C(=O)NCCc1ccc(S(N)(=O)=O)cc1)N1C(=O)CC(C)(C)Sc2ccccc21 (stereo not given)	.	1	17%	2	-4%	-1.4	4%
Cc1ccc(N2CC(C(=O)NCCCn3ccnc3)CC2=O)cc1 (stereo not given)	-1.8%	-14	-3%	1	?	2.6	-4%
CCCn1c(SCC(=O)NC2CCCC2)nnc1-c1cccnc1	.	1	15%	-11	-7%[15.4 µM]	-0.4	-8%
Cc1ccc(-c2csc(/C(C#N)=C/Nc3ccccc3SC(F)(F)F)n2)cc1	0.4%	?	2%	.	-12%	-3.7	12%
CCOc1ccc(S(=O)(=O)N(C)c2ccc(OCC(=O)NCCc3ccc(OC)cc3)cc2)cc1	-0.2%	-2	2%	-1	?	-6.0	-27%
COc1ccc(S(=O)(=O)N2CCC(CN3C(=O)c4cccc5cccc(c45)C3=O)CC2)cc1	10µM*	-8	-11%	-4	-33%[inhibitor]	2.4	-6%
CC1=C(C(=O)N2CCOCC2)CC(CC(=O)NCc2ccco2)C(=O)N1Cc1ccccc1 (stereo not given)	-3.7%	.	.	-2	?	.	.
